# From PubChem
# HPGD block: HPGD (human) dehydrogenase inhibition | AID 894 | 150,000 compounds, 4.3% hits | purified HPGD, NADH fluorescence kinetic, PGE2 substrate | Potency, µM, for inactives: at the top dose activity change, negative = inhibition, hits mostly inhibitors | P15428; active = well fitted inhibition curve with a large enough effect (not every such curve was filed as active); inconclusive = small, poorly fitted or top-dose-only effect, or another doubt; inactive = no such curve, though single readings can be large or run the other way;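 also: top concentration of the series not given in the record; plate controls included wells without enzyme; inactives centre near -10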
# Target sequence (P15428 whole entry, looked up): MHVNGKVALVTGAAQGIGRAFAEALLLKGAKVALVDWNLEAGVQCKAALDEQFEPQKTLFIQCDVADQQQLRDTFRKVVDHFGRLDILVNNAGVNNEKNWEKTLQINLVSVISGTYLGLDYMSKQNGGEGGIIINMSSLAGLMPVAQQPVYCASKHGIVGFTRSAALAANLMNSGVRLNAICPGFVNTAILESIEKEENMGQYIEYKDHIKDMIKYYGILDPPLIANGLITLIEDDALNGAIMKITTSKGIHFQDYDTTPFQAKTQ
#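 NADH formation kinetics: reaction with 30 uM PGE2 and 1 mM NAD+ (final), 20 nM enzyme, Tris-HCl pH 8 with Tween 20, after 15 min compound preincubation at room temperature. Fluorescence change, last versus first of five reads.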
# * marks the source's active call; other numbers are inactive results; ? = inconclusive. % is scaled to controls: 0 for no effect and ±100 for the full control effect; potency is read from the fitted curve at half-maximal effect. A portion of the library. The share of hits here may be higher or lower than overall.
HPGD block | structure
-1% | Cc1sc2nc3n(c(=O)c2c1C)CCCCC3
-19% | O=C(CN1CCC2(CC1)OCCO2)c1ccc2cc[nH]c2c1
1% | CCOC(=O)CCc1c(C)c2ccc(OCc3cc([N+](=O)[O-])ccc3OC)cc2oc1=O
-14% | COc1cccc(NC(=O)C2c3cc(OC)c(OC)cc3C(=O)N(C)C2c2cccnc2)c1 (stereo not given)
-3% | C=CCSc1nc2ccccc2n1S(=O)(=O)c1ccc(C)cc1
-5% | O=C1C2C3C=CC(CC3)C2C(=O)N1c1nccs1 (stereo not given)
0% | Cc1cc(C)cc(N2CN=C3SCC(=O)N3C2)c1
-6% | Cc1ccc(C(=O)N(Cc2ccc3c(c2)OCO3)Cc2nc3ccccc3c(=O)[nH]2)cc1
-1% | Cc1nc(SCC(=O)N2c3ccccc3Sc3ccccc32)n[nH]1
-19% | COc1cccc(CN(C(=O)Cc2c[nH]c3ccccc23)C(C(=O)NC2CCCCC2)c2ccc(C)o2)c1 (stereo not given)
-14% | CCN(C(=O)CSc1nc2ccccc2n1CCc1ccccc1)C1CCS(=O)(=O)C1 (stereo not given)
-15% | CCOC(=O)c1ccccc1NC(=O)c1nc2nccc(C)n2n1
-22% | CC(C)(C)NC(=O)c1nc2ccccc2s1
-20% | O=C(CSc1ncn[nH]1)Nc1c(Br)cc([N+](=O)[O-])cc1Br
? | CCC1CCc2c([nH]c3ccccc3c2=O)O1 (stereo not given)
-3% | Cc1ccc(C(C)C)c(OCc2nnc(SCC(=O)Nc3nccs3)n2C)c1
-19% | COc1cccc(/C=N\Nc2nncc(-c3ccccc3)n2)c1
-7% | CCOC(=O)/C=C1\SCC(=O)N1CC(=O)Nc1ccc(OC)c(OC)c1
-6% | O=C(CSc1nc2ccc(Cl)cc2[nH]1)NCc1ccco1
-26% | CCOC(=O)c1c(C)cc(C)n2c1nc1ccccc12
-1% | O=C(CSc1nnnn1-c1ccccc1)Nc1ncc2c(n1)CC(c1ccccc1)CC2=O (stereo not given)
-15% | Cc1occc1-c1nnc(SCC(=O)c2ccccc2)n1CC1CCCO1 (stereo not given)
-11% | COc1ccccc1-c1noc(-c2cccnc2)n1
-11% | Nc1cc2c(cc1C(=O)c1ccc(Cl)cc1)OCCO2
-7% | Cc1ccc(C(=O)NC(Cc2c[nH]c3ccccc23)C(=O)O)o1 (stereo not given)
28µM* | CCOC(=O)c1ccc(N2C(=O)CC(Sc3nnc(C)s3)C2=O)cc1 (stereo not given)
-8% | Cc1ccc(CNc2cnn(C34CC5CC(CC(C5)C3)C4)c(=O)c2Cl)cc1
-3% | CCN=C(NC#N)SCc1c(F)cccc1Cl
? | Oc1c(C=NCc2ccncc2)sc2ccccc12
7.9µM* | CC(=O)OCCCNc1cc(SCc2ccco2)c2nonc2c1[N+](=O)[O-]
-5% | CCn1c(=N)n(CC(=O)c2ccc(OC)cc2)c2ccccc21
-3% | COc1cccc(C2C(=O)N(C3CCCCC3)CC(=O)N2Cc2ccc(F)cc2)c1 (stereo not given)
0% | COC(=O)N1CCC2(CC1)CCN(c1ccncc1)CC2
-25% | COc1cc2c(cc1OC)CN(Cc1cc(=O)oc3cc(C)c(Cl)cc13)CC2
? | CC1(C(=O)N(CC(=O)NC2CCCC2)Cc2ccco2)CC(=O)N=C2C=CC=CN21 (stereo not given)
-16% | O=c1c2cnn(-c3ccc(F)cc3)c2ncn1Cc1ccccn1
-8% | CCOc1ccccc1C(=O)NCCCn1ccnc1
-23% | COCC(C)n1c(-c2ccc3c(c2)NC(=O)CO3)csc1=Nc1ccc(OC(F)F)cc1 (stereo not given)
? | COc1cccc(C(=O)N(Cc2cc3cc(C)ccc3[nH]c2=O)CC2CCCO2)c1 (stereo not given)
1% | COC(=O)N1CCC[C@@]2(CCN(Cc3nccs3)C2)C1
-22% | Cc1ccc2c(c1)NC(=O)CC(c1ccccc1)=N2
-11% | Cc1ccc(NC(=O)N2CCCC2C(=O)NCCC2=CCCCC2)cc1 (stereo not given)
1% | COc1cc(NS(=O)(=O)c2ccc(NC(=S)NC(=O)C(C)(C)C)cc2)nc(OC)n1
-21% | COc1ccccc1N1CCN(C/C(O)=C(\C#N)c2nc(-c3ccccc3)cs2)CC1
-7% | Cc1ccc(C(=O)N/C(=C\c2cccs2)C(=O)NCCCn2ccnc2)cc1C
22µM* | CC(=O)C1=C(C)NC(SCC(=O)c2ccc(Cl)c(Cl)c2)=C(C#N)C1c1ccco1 (stereo not given)
? | CC(=O)N1CCN(c2ccc(NC(=O)COc3ccc(Cl)cc3Cl)cc2)CC1
? | Cc1cc(NC(=O)c2ccccc2F)n(-c2nc3ccccc3[nH]2)n1
-8% | COc1ccccc1NC(=S)N(CCc1nc2cc(C)c(C)cc2[nH]1)Cc1cccnc1
-4% | Cc1c(C)[n+](=O)c2c(n1[O-])CCC2

# The list goes on.
HPGD block | structure
-16% | Cc1ccc(S(=O)(=O)N2CCN(C(=O)N3CCOCC3)C2c2ccc(N(C)C)cc2)cc1 (stereo not given)
-6% | COc1ccc(-c2csc(NC(=O)c3cc(-c4cccs4)nc4ccccc34)n2)c(OC)c1
-16% | COc1cc(S(=O)(=O)Nc2cccc(C)c2)ccc1N=Cc1c(C)[nH]n(-c2ccccc2)c1=O
-19% | CCOc1cc(C(=O)N/N=C\c2cn(CC)nc2C)cc(OCC)c1OCC
-29% | COC(=O)C1=C(C)NC2=C(C(=O)CCC2)C1c1cccs1 (stereo not given)
-11% | O=C(NNC(=O)c1cccnc1)Nc1ccccc1
? | CC(/C=N/n1c(-c2ccccc2)n[nH]c1=S)=C\c1ccco1
-7% | COc1cccc(N2CCN(C3CC(=O)N(c4ccc(Cl)c(Cl)c4)C3=O)CC2)c1 (stereo not given)
-20% | O=S(=O)(Cc1ccccc1)c1nnnn1-c1ccccc1
? | Cc1ccc(-n2nc3c4c(cccc4c2=O)-c2ccccc2-3)cc1
-8% | CCCN=C1N/C(=C\c2ccco2)C(=O)N1c1ccccc1
-29% | CC(=O)c1ccc(N2CCN(C(=O)c3ccc4c(=O)n(-c5ccccc5)c(=O)[nH]c4c3)CC2)cc1
? | O=C(N/N=C/c1ccco1)c1cc(Br)ccc1OCc1ccccc1
-2% | Cc1cccc(NC(=O)CSc2nc(C)c(CC(=O)c3ccc(Br)cc3)c(C)c2C#N)c1C
-1% | O=C(Nc1ccccc1N1CCN(C(=O)c2ccc(Cl)cc2)CC1)c1cccnc1
-5% | CCOC(=O)N1CCN(c2nnnn2-c2ccccc2)CC1
-6% | N#Cc1cnn(Cc2ccc(Cl)cc2)c1N
-26% | CC(C)C(=O)N(c1ccc2oc(=O)sc2c1)S(=O)(=O)c1cccs1
? | Fc1cccc(Cl)c1CSc1nnc(COc2cccc3cccnc23)o1
-7% | Cc1cc(=O)[nH]c(/N=C(\N)Nc2ccc(Cl)cc2)n1
-6% | O=C(Nc1nc2ccc3ccccc3c2s1)c1ccc(N2CCCCC2)c([N+](=O)[O-])c1
-1% | CN(C)C(=O)COc1ccc(Br)cc1
-11% | CN(C)S(=O)(=O)c1ccc2c(c1)c(=O)c(C(=O)N1CCOCC1)cn2C
20µM* | CC(=O)OCC(=O)NCc1ccc2c(c1)OCO2
-16% | COc1ccc(-c2nnn(Cc3nc(N)nc(N4CCOCC4)n3)n2)cc1OC
-16% | COc1ccccc1NC(=O)CSc1nnc(-c2ccncc2)o1
? | CC(C)CCNc1nc(-c2ccco2)c2c(c1C#N)CCCC2
? | Cc1cc2nc3c(=O)[nH]c(=O)nc-3n(C[C@H](O)[C@H](O)[C@H](O)CO)c2cc1C
-11% | COc1ccc2cc3c(N)nn(C(=O)c4ccc(Cl)c([N+](=O)[O-])c4)c3nc2c1
-4% | CCOC(=O)C1CCCN(C(=O)c2cccs2)C1 (stereo not given)
-3% | Cc1cc(N2C(=O)NC(=O)CC2C)c(C)cc1C(C)C (stereo not given)
-16% | Cc1ccc2c(C)nc(Nc3nc(CSc4nc5ccccc5[nH]4)cc(=O)[nH]3)nc2c1
-14% | COc1ccc(C(CCN2CCOCC2)c2c(OC)cc(OC)c3c(-c4ccccc4)cc(=O)oc23)cc1 (stereo not given)
-9% | CC(=O)Nc1ccc(-c2nnc(SCc3ccc(C)cc3)n2C)cc1
? | COc1ccc2oc(=O)c(-c3ccccc3C(=O)N3CCOCC3)cc2c1
-6% | Cc1cc(C)c(-c2csc(NC(=O)c3n[nH]c(=O)c4ccccc34)n2)c(C)c1
-7% | Cc1ccc(S(=O)(=O)N/N=C\c2ccccc2OCc2ccccc2)cc1
0% | CN(C(=O)COC(=O)COc1ccc(Cl)cc1)C1CCCCC1
? | O=C(/C(=C/c1ccc(Cl)cc1)c1nc2ccccc2[nH]1)c1cccs1
-12% | Cc1cccc(N2CCN(C(=O)CCNC(=O)Cn3ccc4ccccc4c3=O)CC2)c1C
-13% | O=C(CSC1=NC2(CCCCC2)N=C1c1ccccc1)Nc1ccc2c(c1)OCCO2
? | COc1ccc(-c2ccc3c(N)c(C(=O)c4cccc(OC)c4)sc3n2)cc1
? | COc1ccc(C(=O)Nc2ccc3oc(-c4cccc(F)c4)nc3c2)cc1OC
-16% | Cc1ccccc1-c1nnc(NC(=O)c2ccc(N3C(=O)CCC3=O)cc2)s1
-27% | O=C1NC(=S)N(C(=O)c2ccc(F)cc2)/C1=C/c1ccccc1
? | CCOC(=O)c1c(NC(=O)c2ccccc2)sc2c1CCc1ccccc1-2
-8% | Cc1cc(Nc2cccc(C)c2C)n2nc(C)nc2n1
-4% | Cc1c(-n2c(SCC(=O)O)nnc2-c2ccccc2Cl)c(=O)n(-c2ccccc2)n1C
-1% | CCOC(=O)C1CCN(C(=O)C2CCN(S(=O)(=O)c3cccc4cccnc34)CC2)CC1
? | CCOC(=O)C1=C(O)CCn2c1nc1ccccc12

# Remaining list, next part
HPGD block | structure
-4% | CCOC(=O)C1CCN(C(=O)CCNC(=O)c2cc(OC)c(OC)c(OC)c2)CC1
-6% | COC(=O)c1ccc(/C=N/N2CCN(Cc3ccccc3)CC2)cc1
1% | Cc1cc(C(=O)CSc2nnnn2C)c(C)n1CCc1ccc(F)cc1
-6% | COc1ccccc1/C=C(/C(=O)OCC(=O)N(C)Cc1ccccc1)c1ccccc1
-11% | NC(=O)Cn1c(=O)n(C2CCCCC2)c(=O)c2c3c(sc21)CCCCC3
-12% | CCOc1ccc(C2C(C#N)=C(N)Oc3n[nH]c(C)c32)cc1OC(=O)C1CC1 (stereo not given)
-23% | O=C(NCc1ccc(OC(F)(F)F)cc1)C1CC(c2c(Cl)cccc2Cl)=NO1 (stereo not given)
-8% | CCOc1cc(S(=O)(=O)N2CCN(CC)CC2)ccc1Cl
1% | O=c1[nH]c2ccc(Cl)cc2c(=O)n1Cc1ccco1
-3% | CCc1ccc(NC(=O)C2CCN(S(=O)(=O)c3c(C)[nH]c(=O)[nH]c3=O)CC2)cc1
? | COc1ccc(-c2cc3nc(C)cc(NCCO)n3n2)cc1
? | COc1ccc2nc(SCCOC(=O)Nc3ccc(Cl)cc3)nc(C)c2c1
-19% | COC(=O)[C@@H](NC(=O)O[C@@H]1C(=O)c2cc(OC)ccc2O[C@H]1c1ccc(OC)c(Br)c1)C(C)C
? | Cc1ccc(C)c(-n2c3nc(=O)[nH]c(=O)c-3cc3cc([N+](=O)[O-])ccc32)c1
-2% | CCCCc1nc2c(c3c1C[C@H](C)OC3)CN(S(=O)(=O)c1ccc(Cl)c3nonc13)CC2
-5% | CSc1nc(-c2ccccc2)nn1C(=O)c1ccco1
-9% | O=C(CN1CCN(C/C=C/c2ccccc2)CC1)Nc1cc([N+](=O)[O-])ccc1Cl
-5% | COc1ccc(NC(=O)CN2CCN(c3ccccc3Cl)CC2)cc1
-2% | C=CCOn1c(=O)c(-c2ccc(OC)cc2)[n+]([O-])c2ccccc21
? | CC1=C(C(=O)Nc2ccccc2)C(c2ccc(C)cc2)N=C(Nc2nc3ccccc3o2)N1 (stereo not given)
-25% | CCN(CC)c1ccc(-c2nc3cnccn3c2NC2CCCC2)cc1
-20% | O=C(CCN1CCCC1Cc1ccccc1)c1ccc2c(c1)OCCO2 (stereo not given)
-20% | O=C(c1cnn2c(C(F)F)cc(-c3ccccc3)nc12)N1CCN2CCCC2C1 (stereo not given)
-8% | O=C(CNS(=O)(=O)c1ccc(Br)s1)N1CCN(c2ncccn2)CC1
? | Cc1cc(C)c(C#N)c(N2CCCC(C(N)=O)C2)n1 (stereo not given)

# Molecules shown so far containing a furan ring, fused or not:
HPGD block | structure
-19% | COc1cccc(CN(C(=O)Cc2c[nH]c3ccccc23)C(C(=O)NC2CCCCC2)c2ccc(C)o2)c1 (stereo not given)
-6% | O=C(CSc1nc2ccc(Cl)cc2[nH]1)NCc1ccco1
-15% | Cc1occc1-c1nnc(SCC(=O)c2ccccc2)n1CC1CCCO1 (stereo not given)
-7% | Cc1ccc(C(=O)NC(Cc2c[nH]c3ccccc23)C(=O)O)o1 (stereo not given)
7.9µM* | CC(=O)OCCCNc1cc(SCc2ccco2)c2nonc2c1[N+](=O)[O-]
? | CC1(C(=O)N(CC(=O)NC2CCCC2)Cc2ccco2)CC(=O)N=C2C=CC=CN21 (stereo not given)
22µM* | CC(=O)C1=C(C)NC(SCC(=O)c2ccc(Cl)c(Cl)c2)=C(C#N)C1c1ccco1 (stereo not given)
? | CC(/C=N/n1c(-c2ccccc2)n[nH]c1=S)=C\c1ccco1
-8% | CCCN=C1N/C(=C\c2ccco2)C(=O)N1c1ccccc1
? | O=C(N/N=C/c1ccco1)c1cc(Br)ccc1OCc1ccccc1
? | CC(C)CCNc1nc(-c2ccco2)c2c(c1C#N)CCCC2
1% | O=c1[nH]c2ccc(Cl)cc2c(=O)n1Cc1ccco1
-5% | CSc1nc(-c2ccccc2)nn1C(=O)c1ccco1
